# PV pol inh = inhibitors of poliovirus RNA polymerase binding and polymerization; P03300; poliovirus polymerase elongation, fluorescence polarization; stronger effect = lower value; % elongation, % (compound at 16.7 µg/mL); 0.66% of 150,000 active; AID 588519; in the data active = % elongation below about 90%; note: some results filed as inactive read as strong as hits
# Target sequence (P03300 1749-2209 limits assumed): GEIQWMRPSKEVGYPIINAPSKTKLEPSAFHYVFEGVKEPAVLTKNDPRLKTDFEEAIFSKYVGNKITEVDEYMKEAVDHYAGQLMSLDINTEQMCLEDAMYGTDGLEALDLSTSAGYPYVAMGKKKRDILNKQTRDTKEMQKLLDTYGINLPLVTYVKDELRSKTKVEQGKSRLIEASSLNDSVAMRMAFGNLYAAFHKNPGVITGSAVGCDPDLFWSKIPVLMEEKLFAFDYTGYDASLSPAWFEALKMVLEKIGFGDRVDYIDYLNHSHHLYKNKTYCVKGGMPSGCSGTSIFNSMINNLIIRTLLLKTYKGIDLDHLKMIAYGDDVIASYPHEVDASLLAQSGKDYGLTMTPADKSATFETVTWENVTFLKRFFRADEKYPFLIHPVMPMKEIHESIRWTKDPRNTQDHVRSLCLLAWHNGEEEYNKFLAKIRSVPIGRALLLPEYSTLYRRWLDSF
# PV pol inh intensity = further read-out of PV pol inh, marked with its call; % elongation; measured here: total intensity read-out; formula for this scale not given here;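 total fluorescence in place of polarization; lower means less elongation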
# * marks the source's active call; other numbers are inactive results. Not all compounds are listed; the hit share may differ from the screen's.
Molecule	PV pol inh	PV pol inh intensity
CCC1CCCCN1C(=O)Cn1c(=O)cc(C(F)(F)F)c2c(C)nn(C)c21 (stereo not given)	102	111
COC(=O)c1ccc(NC(=O)CN(CCc2ccccc2)S(=O)(=O)c2ccc(OC)cc2)cc1	108	111
CCOc1ccc(CN(CCc2ccc3c(c2)OCO3)Cc2ccc(OC)c(Br)c2)cc1	99	98
Cc1cccc(N2CCN(S(=O)(=O)c3c(C)nc4scc(C)n4c3=O)CC2C)c1 (stereo not given)	107	107
Cc1ccc(Cn2c(C(=O)O)c(CNCc3ccc(C)o3)c3ccc(C)cc32)cc1	116	115
Cc1ccc(CNC(=O)c2ccc(Cn3c(=O)c4ccccc4n(CC(=O)Nc4c(C)cc(C)cc4C)c3=O)cc2)cc1	118	113
COc1cc(OC)c(C2Nc3c(C)cccc3-c3cc(C)nn32)cc1OC (stereo not given)	100	97
O=C(Nc1ccc(Cl)cc1)N1CCC(c2ccccc2)C1 (stereo not given)	101	102
COc1cccc(-c2cc(C(F)(F)F)n3nc(-c4ccc(C)cc4)cc3n2)c1	103	103
Cc1ccccc1NC(=O)CCn1cnc2onc(-c3ccc(F)cc3)c2c1=O	102	99
CCn1c(=O)cc(SCC(=O)NCc2cccc(Cl)c2)c2ccccc21	106	111
CCSc1ncc(Cl)c(C(=O)Nc2c(C(=O)c3ccccc3)oc3ccccc23)n1	112	112
COc1ccc2c(c1)CC(NC(=O)Nc1ccc(NC(C)=O)cc1)CO2 (stereo not given)	110	104
CCCS(=O)(=O)c1nc(S(=O)(=O)c2ccc(C)cc2)c(NC(C)c2ccccc2)s1 (stereo not given)	105	105
Cc1cccc(C(C)C)c1NC(=O)C(NS(=O)(=O)c1cccc2nsnc12)c1ccccc1 (stereo not given)	105	111
Cc1cccc(-c2nc(SCc3cc(=O)c4c(C)cc(C)cc4[nH]3)n[nH]2)c1	106	109
CCOc1ccc(NS(=O)(=O)c2ccc3[nH]cc(C(=O)NC4CCCC4)c(=O)c3c2)cc1	112	111
COc1cccc(Nc2cc(C)nc3nc(-c4ccc(Cl)cc4)nn23)c1	113	109
CCOC(=O)c1cccc(NC(=O)CCC(=O)N2CC(C)Oc3ccc(C)cc32)c1 (stereo not given)	104	105
CCCCSCCCNC(=O)CN1C(=O)COc2ccc(S(=O)(=O)N3CCCC3)cc21	107	106
O=C(NCCc1csc(-c2cccc(F)c2)n1)c1ccco1	105	113
COc1ccc2sc(N(Cc3cccnc3)C(=O)c3ccc4c(c3)OCCO4)nc2c1	99	105
COc1cc(C)ccc1OCCSc1nnc(-c2ccc(C)cc2)o1	96	101
CCOc1ccc(-c2csc(-c3nc(-c4ccc(Br)s4)cs3)n2)cc1	109	111
COc1ccccc1OCc1ccc(C(=O)Nc2ccc(C)c(C)c2)o1	99	99
COc1cc(NC(=O)CN2Cc3ccccc3C2=O)cc(OC)c1OC	100	100
CCOc1ccc(NC(=O)C2CCCN(c3cnccn3)C2)cc1 (stereo not given)	109	105
CC(C)(C)OC(=O)N1CCC(c2c(C(=O)N3CCCCC3)cnn2-c2cccc(F)c2)CC1	102	93
COc1cc(NC(=O)Cn2nc(C(F)(F)F)c3c2CCC3)cc(OC)c1OC	107	108
COc1ccc(N(Cc2cccs2)C(=O)COc2cccc(Cl)c2)cc1	105	111
O=C(CCc1nc(-c2cccs2)no1)Nc1ccc([N+](=O)[O-])cc1	108	109
CC1CCCCN1Cc1c(O)ccc2c(=O)c(-c3ccc(Cl)cc3)c(C(F)(F)F)oc12 (stereo not given)	104	105
Cc1ccc(-n2nnnc2CNC(=O)C2CC(=O)N(c3ccccc3)C2)cc1C (stereo not given)	104	114
CCOc1cccc(C2c3c(oc4ccc(F)cc4c3=O)C(=O)N2CCOC)c1 (stereo not given)	104	110
COc1ccc(CCNC(=O)CCc2cn(Cc3ccc(F)cc3)c3ccccc23)cc1OC	110	112
COc1cccc(CNC(=O)CN2C(=O)CSc3ccc(S(=O)(=O)N4CCCC4)cc32)c1	119	122
CCCc1ccc(OC(C)C(=O)Nc2sc3c(c2C(=O)OC)CCCCC3)cc1 (stereo not given)	86*	89*
O=C(NC1CCCCC1)c1ccc(CSc2nc3ccncc3n2Cc2ccccc2)cc1	105	107
Cc1ccccc1CNC(=O)c1ccc(CSc2nc3cccnc3n2Cc2ccccc2)cc1	115	116
O=C(CC1N=C2c3ccccc3N=C(SCc3ccc(Cl)cc3)N2C1=O)NCc1cccs1 (stereo not given)	105	109
COc1ccc(-n2cc(C(=O)NCc3cccc(OC)c3)c3ccccc3c2=O)cc1	102	95
COc1ccc(N2CCN(S(=O)(=O)c3ccc(-c4cnc(C5CC5)o4)cc3)CC2)cc1	102	107
COc1ccc(-c2noc(-c3ccc(N4CCCCC4C)c([N+](=O)[O-])c3)n2)cc1OC (stereo not given)	114	104
Cc1ccccc1CSc1ncc(Cl)c(C(=O)NCc2ccccc2)n1	105	102
CC1CCC(NC(=O)c2ccc3c(c2)N(Cc2cccc(F)c2)C(=O)c2ccccc2S3)CC1 (stereo not given)	106	100
Cc1ccccc1-c1noc(-c2nnn(-c3ccccc3C)c2N)n1	121	109
COc1cccc(NC(=O)CCc2c(C)nc3c4cccnc4nn3c2C)c1	105	108
CCOC(=O)Cc1c(C)nc2cc(-c3ccc(C(C)(C)C)cc3)nn2c1C	108	111
Cc1nc2ncnn2c(C)c1CCC(=O)NCc1cccc(Cl)c1	105	108
Cc1cc(Br)ccc1NC(=O)CN1C(=O)c2cccnc2Sc2ccccc21	109	99

# Next section
Molecule	PV pol inh	PV pol inh intensity
CCOC(=O)c1cc(-c2ccccc2)n(CC(=O)NC2CCC(C)CC2)c1C (stereo not given)	105	101
COC(=O)C(C)Sc1ccc2nnc(CCNS(=O)(=O)c3ccc(C)cc3)n2n1 (stereo not given)	112	111
COCCCNc1nc2c(S(=O)(=O)c3ccc(C)c(C)c3)nnn2c2ccc(Cl)cc12	108	103
CCOc1ccccc1Nc1sc(C(=O)c2ccc(Cl)cc2)c(N)c1C(=O)NCCc1ccccc1	113	121
CCOc1ccc2nc(N3CCCC(C(=O)NCc4ccccc4Cl)C3)sc2c1 (stereo not given)	108	110
CCOc1cccc(C(=O)Nc2ccc(-c3nc4ncccc4o3)cc2C)c1	111	118
CC(C(=O)NCc1ccc(Cl)cc1)n1ccc2cc(S(=O)(=O)N3CCCC3)ccc21 (stereo not given)	106	110
CC(=O)N1CCCc2cc(S(=O)(=O)N3CCCC(C(=O)Nc4cccc(F)c4)C3)ccc21 (stereo not given)	103	109
CC(=O)Nc1ccc2nc3c(=O)[nH]c(=O)[nH]c3nc2c1	66	144
CCOC(=O)C1CCN(CC(=O)N2CCCc3c2c(=O)oc2ccc(OCc4ccccc4)cc32)CC1	101	100
Cc1ccc(CSc2nc3ccc(NC(=O)CC(C)C)cc3s2)cc1	103	107
Cc1nc2c(-c3ccc(F)cc3)c(C)nn2c(C)c1CCC(=O)N1CCN(c2ccccc2)CC1	103	103
Cc1ccc(CNC(=O)c2cc(=O)c3cc(C)ccc3o2)cc1	104	107
Cc1cccc(OC(=O)CSc2nnc(-c3ccc4c(c3)OCO4)o2)c1C	104	109
CN(C)c1ccc(CNC(=O)C2CCN(c3nc4ccccc4[nH]3)CC2)cc1	104	106
Cc1ccc(OC(=O)c2cc(-c3ccc4c(c3)OCCO4)on2)c(C)c1	103	106
Cc1ccc(S(=O)(=O)Nc2cccc(-c3cn4cccc(C)c4n3)c2)cc1	99	104
Cc1ccc(C(=O)O)cc1Nc1nc2ccccc2n2nnnc12	107	120
CCCCSc1nnc2[nH]c(=O)cc(C)n12	99	105
CC(C)(C)OC(=O)N1CCC(c2c(C(=O)NCCN3CCc4ccccc4C3)cnn2-c2ccc(F)cc2)CC1	105	113
CCCCNC(=O)c1[nH]c2ccccc2c1Sc1ccc(C)cc1	112	109
COc1ccc(NC(=O)CN(c2ccccc2OC)S(C)(=O)=O)c(OC)c1	106	111
CCCOC(=O)c1ccc(Nc2nc3ccccc3nc2-n2nc(C)cc2C)cc1	112	112
COc1cccc(-c2nc3c(c(SCc4ccccc4)n2)Cc2c(CO)cnc(C)c2O3)c1	112	110
COc1ccc(NC(=O)Cn2ccn(-c3ccc(F)c(F)c3)c(=O)c2=O)cc1Cl	108	111

# Sorted by SMILES length (ascending): some entries from above
Molecule	PV pol inh	PV pol inh intensity
CCCCSc1nnc2[nH]c(=O)cc(C)n12	99	105
Cc1ccc(CNC(=O)c2cc(=O)c3cc(C)ccc3o2)cc1	104	107
CCOc1cccc(C(=O)Nc2ccc(-c3nc4ncccc4o3)cc2C)c1	111	118
COC(=O)C(C)Sc1ccc2nnc(CCNS(=O)(=O)c3ccc(C)cc3)n2n1 (stereo not given)	112	111
COc1cccc(-c2nc3c(c(SCc4ccccc4)n2)Cc2c(CO)cnc(C)c2O3)c1	112	110

# Looked up one by one from the list above, 4 records:
Molecule	PV pol inh	PV pol inh intensity
CCOc1ccccc1Nc1sc(C(=O)c2ccc(Cl)cc2)c(N)c1C(=O)NCCc1ccccc1	113	121
Cc1cccc(OC(=O)CSc2nnc(-c3ccc4c(c3)OCO4)o2)c1C	104	109
CN(C)c1ccc(CNC(=O)C2CCN(c3nc4ccccc4[nH]3)CC2)cc1	104	106
COc1ccc(NC(=O)Cn2ccn(-c3ccc(F)c(F)c3)c(=O)c2=O)cc1Cl	108	111

# Next part:
Molecule	PV pol inh	PV pol inh intensity
CCOc1ccc(N2CC(NC(=O)c3cccs3)CC2=O)cc1 (stereo not given)	114	104
Cc1ccc(CSc2cn(CC(=O)N3CCCCCC3)c3ccccc23)cc1	114	119
Cc1ccc(Cl)cc1N1CCN(C(=O)CN2C(=O)COc3ccc(S(=O)(=O)N4CCOCC4)cc32)CC1	107	110
CCOC(=O)c1[nH]c(C)c(CCC(=O)NCc2ccccc2Cl)c1C	111	108
CCS(=O)(=O)c1ncc(Cl)c(C(=O)Nc2ccc(S(=O)(=O)N(C)c3ccccc3)cc2)n1	119	117
COc1cccc(Cn2c(=O)n(-c3cccc(Cl)c3)c(=O)c3c4c(sc32)CN(C(C)=O)CC4)c1	103	103
CCN1CCN(c2ncc3c(n2)CCN(Cc2ccc(OC(C)C)cc2)C3)CC1	105	110
O=C(CSc1cn(CC(=O)N2CCCCC2)c2ccccc12)NCc1ccccc1Cl	116	118
COc1cc(NC(=O)CCc2c(C)nc3c(-c4ccc(F)cc4)c(C)nn3c2C)cc(OC)c1OC	110	108
Cc1ccc(-c2nnc(Nc3cccc(Br)c3)c3ccccc23)cc1S(=O)(=O)NCC1CCCO1 (stereo not given)	104	106
CCc1ccc(CN2C(=O)c3ccccc3C2C(=O)NCCc2ccc(OC)c(OC)c2)cc1 (stereo not given)	113	116
COc1ccc(OC)c(S(=O)(=O)NCCc2csc(-c3cccc(F)c3)n2)c1	104	101
Cc1cccc(N2CCN(C(=O)C3CCN(S(=O)(=O)c4c(C)noc4C)CC3)CC2C)c1 (stereo not given)	115	116
Cc1ccc(-n2c(=O)c3sc4ccccc4c3n(CC(=O)NC3CCCC3)c2=O)cc1C	102	103
CCS(=O)(=O)N1CC(=O)N(c2cccc(C)c2C)C(C)(C(=O)NC2CCCCCC2)C1 (stereo not given)	107	105
CCOC(=O)c1c(NC(=O)/C(C#N)=C/c2ccccc2)sc2c1CCC2	110	113
CCN(CC)CCOC(=O)c1ccc(NC(=O)c2nn(C)c3c2COc2ccccc2-3)cc1	102	101
O=C(C1CCCN(S(=O)(=O)c2cccs2)C1)N1CCN(c2cccc(Cl)c2)CC1 (stereo not given)	107	108
O=C(Cn1ncc2c([nH]c3ccccc32)c1=O)NCCCN1CCN(c2ccc(F)cc2)CC1	113	114
Cc1ccc(Cc2nc3ccccc3nc2SCC(=O)NCc2ccccc2Cl)cc1	114	106
CCOc1ccc(C(c2c(O)cc(C)n(CCOC)c2=O)N2CCN(c3ccc(F)cc3)CC2)cc1 (stereo not given)	110	109
Cc1cccc(-n2nnc(-c3nc(-c4cccs4)no3)c2N)c1C	118	118
COc1cc(NS(=O)(=O)c2ccc(NC(=O)C(C)Oc3ccc(Cl)cc3Cl)cc2)nc(OC)n1 (stereo not given)	106	110
O=C(CCCCCn1c(=O)[nH]c2ccccc2c1=O)NCc1cccc(Cl)c1	105	110
Cc1ccc(NC(=O)CCS(=O)(=O)c2cccc3nonc23)c(C)c1	100	109
COc1cc(NC(=O)CCc2c(C)nc3c4c(C)cc(C)nc4nn3c2C)cc(OC)c1	102	107
CCSc1ccccc1C(=O)Nc1ccc(-c2nc3ccccc3s2)c(O)c1	110	111
COc1ccc(N2CC(C(=O)Nc3ccc(NC(C)=O)cc3)CC2=O)cc1 (stereo not given)	105	107
CCOC(=O)CN1C(=O)C(O)(CC(=O)c2cc(OC)ccc2OC)c2ccccc21 (stereo not given)	103	101
CCOc1ccc(S(=O)(=O)c2cn(CC)c3ccc(F)cc3c2=O)cc1	98	100
Cc1ccc(Oc2nc3c(c(=O)n(Cc4ccccc4Cl)c(=O)n3C)n2C)cc1C	109	113
Cc1ccc(C)c(NC(=O)c2ccc(CN3CC(=O)N4CCCCC4C3=O)cc2)c1 (stereo not given)	115	115
CCOc1ccc(NC(=O)c2cc(S(=O)(=O)NC3CCCC3)ccc2F)cc1	107	99
CCOc1ccccc1NC(=O)c1nn(-c2ccc(OC)cc2)c(=O)c2c1c1ccccc1n2C	105	106
CCCCC12CN3CC(C)(CN(C1)C3c1ccc(OCc3ccccc3)cc1)C2=O (stereo not given)	102	106

# Source: PubChem (ICCB-Longwood Screening Facility, Harvard Medical School)
